Screening data: PubChem BioAssay, several laboratories
YopH PTP inh: inhibitors of Yersinia enterocolitica YopH tyrosine phosphatase | fluorescence Ex485/Em525 | inhibition, %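 (about 10 µM by stock and volumes)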 | AID 898 | 0.16% of 140,000 active;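 active means inhibition of 50% or more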;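 further: controls were vehicle for no effect and minimum signal wells for full effect; inactives centre near -20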
Arbovirus anti: antivirals against arbovirus infection; arbovirus infection cell-based antiviral screen; inhibition, % at 10 µM; 0.37% of 200,000 active;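 active means inhibition from about 30%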;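 further: bluetongue infection of BSR cells; cell survival read as ATP light after 72 h; 0% = infected wells without compound and 100% = uninfected wells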
RecA splice inh: inhibitors of M. tuberculosis RecA intein splicing | cell-free RecA intein splicing, fluorescence | P9WHJ3 | 0.75% of 290,000 active | AID 2221 | inhibition, %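 (about 9 µM by stock and volumes)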; in the data active means inhibition above about 30%; inconclusive means no clear call, values can overlap the other calls;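 further: 0% = vehicle wells and 100% = reference inhibitor control wells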
Target sequence (P9WHJ3 whole entry, looked up, canonical isoform): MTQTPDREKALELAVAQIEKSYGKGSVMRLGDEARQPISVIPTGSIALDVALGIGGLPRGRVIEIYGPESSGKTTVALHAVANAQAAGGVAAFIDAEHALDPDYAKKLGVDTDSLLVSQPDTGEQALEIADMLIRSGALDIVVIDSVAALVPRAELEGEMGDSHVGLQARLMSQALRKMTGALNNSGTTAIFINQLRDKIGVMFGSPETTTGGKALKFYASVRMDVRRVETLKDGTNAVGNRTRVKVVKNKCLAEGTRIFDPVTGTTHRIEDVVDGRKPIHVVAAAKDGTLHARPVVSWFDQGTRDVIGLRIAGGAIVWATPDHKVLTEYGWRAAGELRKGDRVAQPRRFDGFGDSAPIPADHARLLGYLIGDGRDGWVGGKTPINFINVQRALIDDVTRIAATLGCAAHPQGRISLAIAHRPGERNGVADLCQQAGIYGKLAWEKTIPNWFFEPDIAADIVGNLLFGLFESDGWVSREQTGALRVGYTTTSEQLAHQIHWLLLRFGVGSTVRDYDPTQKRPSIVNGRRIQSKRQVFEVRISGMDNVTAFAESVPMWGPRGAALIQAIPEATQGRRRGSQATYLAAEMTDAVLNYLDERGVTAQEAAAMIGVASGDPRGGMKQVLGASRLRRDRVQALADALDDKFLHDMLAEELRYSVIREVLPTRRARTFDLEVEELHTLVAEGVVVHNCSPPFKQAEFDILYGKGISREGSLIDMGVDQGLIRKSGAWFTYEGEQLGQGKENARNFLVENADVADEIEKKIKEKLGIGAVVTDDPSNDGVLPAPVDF
Mtb growth: M. tuberculosis H37Rv growth inhibitors, H37Rv strain (AID 1626); M. tuberculosis H37Rv growth inhibition; higher % means a stronger effect; inhibition, % at 10 µM; hits with a dose series show IC50 in µM; 0.95% of 220,000 active;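 active means confirmed in a dose series; inconclusive means inhibition above 80% but not taken into the dose series; inactive means below 80% or under 30% at every dose of the series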;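 further: bacteria incubated seven days before Alamar blue readout; 0% = bacteria only wells and 100% = bacteria with antibiotic wells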
Mtb betalactam: beta-lactam sensitization of Mtb H37Rv; M. tuberculosis H37Rv growth with meropenem, percent inhibition; hits of this screen are not shown here; inhibition, % at 25 µM; 0.27% of 330,000 active;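 active means about 74% or more and at least 40 points above the plate without the antibiotic, then above 30% in a dose series; inconclusive means first-round hits that could not be retested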;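 further: growth measured after seven days incubation then overnight dye step; 0% = bacteria only wells and 100% = bacteria with antibiotic; twin plates without the antibiotic show which effects depend on it; some results filed as inactive read as strong as hits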
Arbovirus anti repeat: also measured in Arbovirus anti; calls as there; inhibition, %; measured here: 10K subset replicate screen; many hits read low in the repeat;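 first of two repeat runs on a subset; 0% = infected and 100% = uninfected wells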
* hit, by the source's call; u = inconclusive; x = no result given. Not all compounds are listed; the hit share may differ from the screen's.

SMILES	YopH PTP inh	Arbovirus anti	RecA splice inh	Mtb growth	Mtb betalactam	others
CCOC(=O)c1sc(=NC(=O)c2ccc(Cl)s2)n(C)c1C	x	-12	-0.1	2%	1
COc1ccccc1N(CC(=O)NCCSC(C)(C)C)S(C)(=O)=O	-39	3	-2.3	-5%	-1
COc1ccccc1C(=O)NCCCNc1ccc([N+](=O)[O-])cc1	-24	-4	0.5	5%	-5
CC1=C(C)CC(C(=O)NCc2ccccc2F)C(C(=O)O)C1 (configuration not stated)	x	x	-2.1	x	-1
CSc1cccc(NC(=O)CN(C)S(=O)(=O)c2ccccc2)c1	-24	4	-0.1	7%	-15
COc1cccc(-c2nnc3n2N=C(c2cc(OC)ccc2OC)CS3)c1	-39	3	-0.1	-1%	5
CC1CCN(S(=O)(=O)c2ccc(Cl)cc2)CC1	3	-5	-1.0	-5%	0
CCN(CC)S(=O)(=O)c1ccc(C(=O)Oc2cc(C)[nH]c(=O)c2[N+](=O)[O-])cc1	x	1	-4.0	1%	-2
O=S(=O)(Nc1ncccn1)c1ccc(F)cc1	x	x	1.0	x	-6
O=C(COc1ccccc1[N+](=O)[O-])Nc1cc(Cl)ccc1C(=O)O	x	8	0.6	-4%	-8

The closing 2 compounds of the part before come first, to join the parts:
SMILES	YopH PTP inh	Arbovirus anti	RecA splice inh	Mtb growth	Mtb betalactam	others
O=S(=O)(Nc1ncccn1)c1ccc(F)cc1	x	x	1.0	x	-6
O=C(COc1ccccc1[N+](=O)[O-])Nc1cc(Cl)ccc1C(=O)O	x	8	0.6	-4%	-8
CC(=O)N1CCC(O)(c2ccc3c(c2)OCO3)CC1	x	x	-1.2	x	-8
OCCn1c(SCCOc2ccccc2F)nc2ccccc21	34	1	3.0	3%	14	Arbovirus anti repeat=-2
COc1ccc(CCC(=O)NCCc2ccc(Cl)cc2)cc1	x	x	0.4	x	-6
CCOc1ccc(-n2c(O)c(/C=N/NC(=O)C3COc4ccccc4O3)c3ccccc3c2=O)cc1 (configuration not stated)	-16	-20	-1.9	-2%	3
COc1cccc(C(=O)Nc2cccc(NC(=O)c3ccccc3Cl)c2)c1	x	x	3.3	x	-5
CCOC(=O)NC(NC(=S)Nc1ccccc1OC)C(Cl)(Cl)Cl (configuration not stated)	-20	10	2.5	-2%	-3
S=C(NCCN1CCOCC1)Nc1ccc(Cl)cc1Cl	-22	-2	2.9	-1%	-5
COC(=O)C(NC(=O)CCC(=O)NC(C(=O)OC)c1ccccc1)c1ccccc1 (configuration not stated)	x	x	-1.5	x	-8
CC(C)Cn1cc(C(=O)NC2CCN(Cc3ccccc3)CC2)c2c3ccccc3n(C)c2c1=O	-7	2	0.8	x	-6
C=CCNC(=O)c1onc(CSc2ccc(Cl)cc2)c1C(=O)O	1	7	-0.5	-4%	9
Cc1cccc(C(=O)NCC(=O)NC(C)c2ccc(-n3ccnc3)cc2)c1 (configuration not stated)	x	x	1.6	x	-14
CC(=O)Nc1cc(C(=O)N2CCC3(CC2)OCCO3)ccc1Sc1ccc(C)cc1	-116	-1	1.3	6%	4
COc1ccc(NC(=O)CSc2nnc(Cc3cccn3C)n2-c2ccc(OC)cc2)cc1	-33	1	1.5	-4%	1
Cc1cc(C)c(NC(=O)CSc2ccc(-c3cccnc3)nn2)c(C)c1	x	16	2.9	3%	-3
O=C1CNC(=O)/C1=C\c1ccc(O)cc1	-14	5	2.8	-2%	2
CCN(CC(=O)NCc1ccc(F)cc1)Cc1nc2ccccc2c(=O)[nH]1	-31	-7	1.6	0%	-9
O=C(COc1ccccc1)NC(=S)Nc1cccc(NC(=O)c2ccccc2Cl)c1	-21	-12	4.3	7%	3
O=C(c1ccccc1)N(Cc1ccc(F)cc1)C1CCS(=O)(=O)C1 (configuration not stated)	-35	2	-1.0	-7%	-8
CCCc1cc(=O)n2[nH]c(-c3ccc(C)cc3)cc2n1	-39	-3	2.4	2%	4
CCOCCn1c(CN2CCN(c3ccc(F)cc3)CC2)nc2c1c(=O)n(C)c(=O)n2C	-35	1	1.2	-7%	2
COc1ccc(CNC(=O)CCSCc2ccccc2Cl)c(OC)c1	-23	-12	2.0	0%	2
O=C(Nc1cccc(S(=O)(=O)N2CCCC2)c1)c1cccc(OC(F)F)c1	x	x	4.2	x	-1
CNS(=O)(=O)c1cc(C(=O)NCc2ccco2)ccc1Cl	11	-2	2.3	6%	-1
CCCC(=O)N(c1ccc(OCC)cc1)C1C=CS(=O)(=O)C1 (configuration not stated)	-40	-1	-4.3	-1%	13
O=C(Cn1cnc2cc([N+](=O)[O-])ccc2c1=O)NCCc1ccc(Cl)cc1	x	-3	-2.1	2%	-11
COCCNC(=O)C1CCN(S(=O)(=O)N2CCC3(CC2)OCCO3)CC1	-35	4	8.7	-10%	1
CCc1ccccc1-n1c(SCC(=O)Nc2ccc3c(c2)OCCO3)nc2[nH]ncc2c1=O	-44	4	2.0	5%	-2
CCN(CC)CC(=O)N1CCCC(N2CCN(c3cccc(C(F)(F)F)c3)CC2)C1 (configuration not stated)	x	x	2.2	x	0
CCOC(=O)c1cccnc1NC(=O)c1ccncc1	-10	4	-1.9	-1%	2
Cc1nc2c(-c3ccc(F)cc3)c(C)nn2c(C)c1CCC(=O)N1CCC2(CC1)OCCO2	3	-8	-0.4	-1%	9
COc1ccc(CC(=O)NC(C)c2ccc(S(N)(=O)=O)cc2)cc1S(=O)(=O)N1CCOCC1 (configuration not stated)	x	x	1.6	x	-11
Cn1c(-[n+]2c(-c3ccccc3)cc(-c3ccccc3)cc2-c2ccccc2)nc2c([N+](=O)[O-])cccc21	-11	-20	33*	66%	56
CCOC(=O)c1c(NC(=O)CN2CCOCC2)sc(C(=O)NC)c1C	2	0	-2.4	-7%	-4
O=C(CN1C(=O)c2cccc3cccc(c23)C1=O)N1CCCCC1	14	0	-4.3	7%	-9
Cc1c(C(=O)c2ccccc2)c(=O)n(C)c(=O)n1C	x	-1	0.0	4%	5
Cc1ccc(NC(=O)c2cc(NC(=O)c3ccccc3C(=O)O)ccc2N2CCCCC2)cc1	x	18	5.9	-1%	-1
COc1ccc2c(C#N)c3ccccn3c2c1	x	-9	-227	9%	-4
COc1cccc(OC)c1OCCN1CCCC1	x	x	-1.6	x	-3
Cc1cc(S(=O)(=O)NCc2ccc(S(N)(=O)=O)cc2)c(C)s1	-16	-5	22	-2%	-20
CCN(CC)CCNc1nc(-n2nc(C)cc2C)nc2sc3c(c12)CC(C)(C)OC3	x	x	-2.9	14%	91
COc1ccc(NC(=O)CSc2nnc(C(C)C)n2N)cc1	-9	10	6.0	-2%	-1
CC(=O)N1CCN(CC(=O)Nc2ccccc2C(=O)NCc2ccc(C)cc2)CC1	x	x	2.8	x	3
O=C(NCC1CCCO1)c1cc2c(s1)CCC2 (configuration not stated)	x	9	1.7	-9%	6
Cn1cccc1/C=N/NC(=O)c1cccnc1	-17	-1	-0.3	-7%	4
COC(=O)c1ccc2c(=O)n(NC(C)=O)c(=S)[nH]c2c1	6	4	5.4	-1%	-5
Cc1ccc(-n2ncc3c2CCCC3NC(=O)CSc2ccccn2)cc1C (configuration not stated)	x	x	9.5	x	u
CCn1c(-c2ccccc2)csc1=Nc1ccc(O)cc1	x	-24	2.9	5%	0
Cc1cc(C)nc(SCc2nc(N)nc(-c3ccccc3O)n2)n1	-28	-3	7.8	3%	-2
O=[N+]([O-])c1c(NCCO)cc(N2CCN(Cc3ccc4c(c3)OCO4)CC2)c2nonc12	-33	-9	-1.7	-1%	-5
c1ccc(-c2cn(-c3ccccc3)c3ncnc(N4CCCCC4)c23)cc1	x	-10	2.9	73%	79
Following part.
SMILES	YopH PTP inh	Arbovirus anti	RecA splice inh	Mtb growth	Mtb betalactam	others
C=CCn1cnc2scc(-c3ccc(C)c(C)c3)c2c1=O	x	0	0.9	-5%	3
CC(=O)Nc1ccc(C(=O)OCC(=O)NCc2ccccc2)cc1	x	-6	-2.6	3%	-4
CCOC(=O)c1ccc2nc(CCC(=O)N[C@H](C(=O)OC)C(C)C)c(=O)n(CC)c2c1	x	15	2.0	1%	-5
CCCN1C2CCCC1CC(NC(=O)c1ccccc1F)C2 (configuration not stated)	7	2	-0.5	-9%	3
Cc1ccc(C(=O)NCC(=O)OCC(=O)N(CC(C)C)c2c(N)n(Cc3ccccc3)c(=O)[nH]c2=O)cc1	x	x	0.7	x	-1
CCOc1ccc(NC(=O)N[C@@H](CCSC)C(=O)OC)cc1	-36	4	1.1	-3%	-14
Cc1ccccc1CNC(=O)Cc1ccccc1[N+](=O)[O-]	-21	-1	-2.7	0%	5
CCOc1ccc(CN2CCC(Cc3ccccc3)CC2)cc1	x	x	-0.4	x	-1
O=C(CSc1ncc(-c2ccccc2)[nH]1)Nc1ccccc1	-13	-3	1.3	4%	-7
COc1ccc(S(=O)(=O)Nc2ccc3c(c2)N(C(C)=O)CCC3)cc1OC	x	x	2.2	x	-3
O=C(NCc1ccccc1)c1cccnc1Sc1ccccc1	x	x	0.3	x	-10
O=C(CCNS(=O)(=O)c1ccccc1F)N1CCN(Cc2ccccc2)CC1	x	x	0.7	x	-10
c1csc(C2C3=C(Nc4ncnn42)c2ccccc2OC3)c1 (configuration not stated)	-43	-1	-7.8	0%	3
COc1ccccc1CNC(=O)C(=O)NCC(c1ccco1)N1CCOCC1 (configuration not stated)	x	0	-1.5	4%	0
Cc1ccc(-c2c(C(=O)O)c(C(=O)O)c3n2CSC3)cc1	x	x	0.1	x	-2
Cc1nc2ccc(NC(=O)COc3cccc(F)c3)cc2s1	x	-1	-3.5	21µM*	92
O=[N+]([O-])c1ccc2[nH]c(O)c(N=NC3CS(=O)(=O)CC3O)c2c1 (configuration not stated)	x	x	-0.1	-2%	-4
C[n+]1ccccc1COc1ccc(C(C)(C)C)cc1	-21	-7	-3.0	-1%	4
CCOC(=O)c1oc2ccc(S(=O)(=O)N3CCC(C)CC3)cc2c1C	-33	-6	-0.6	2%	-4
CC1CCN(CC(=O)Nc2ccccc2-c2ccccc2)CC1	-29	-19	3.6	-1%	8
O=S1(=O)CCC(SCc2nc3sccn3c2Br)C1 (configuration not stated)	-17	5	1.2	-7%	9
CC1(C)C2CC=C(/C=N/NC(=O)c3ccc(Cl)cc3)C1C2 (configuration not stated)	-30	6	-1.3	48%	99
CCC(=O)Nc1nc(-c2cc([N+](=O)[O-])cs2)cs1	x	13	-2.2	<0.2µM*	100
CCN(CC)C(=O)c1sc2c(c1C)c(=O)n(-c1ccc(OC)cc1OC)c(=O)n2CC(=O)c1ccccc1	x	5	4.3	-6%	-8
C=CCOC(=O)/C=C/C(=O)NC(N)=O	x	x	1.1	1%	7
CCN(CC)S(=O)(=O)c1ccc(NC2=NS(=O)(=O)c3ccccc32)cc1	4	2	-5.7	-3%	-2
CCCCn1c(N)c(NCC(C)C)c(=O)[nH]c1=O	46	1	1.3	-10%	1
COc1ccc(-c2nnc(SC)nc2-c2ccc(OC)c([N+](=O)[O-])c2)cc1[N+](=O)[O-]	x	x	-0.7	x	-9
Nc1cccc2c1C(=O)N(CC(=O)NC13CC4CC(CC(C4)C1)C3)C2=O	x	-2	-216	3%	-4
O=C(O)CSc1c(-c2ccccc2)c2cc(Cl)ccc2[nH]c1=O	-40	-1	1.6	0%	0
COc1ccccc1CN1CC(C(=O)NCc2ccc(C)c(F)c2)CCC1=O (configuration not stated)	x	x	-1.3	x	1
CC(=O)c1cccc(NC(=S)NC(=O)c2ccc(Br)cc2)c1	-27	-12	-1.3	5%	1
CCc1nnc(NC(=O)CSc2nc3ccc(OC)cc3[nH]2)s1	x	-1	-0.4	-1%	9
CC(=O)/C(N=Nc1ccc(-n2ccc(C(F)(F)F)n2)cc1)=C(\C)O	x	x	2.8	-4%	9
OC(c1ccc(OCc2ccccc2)cc1)c1nnc(-c2ccccc2)o1 (configuration not stated)	-22	6	-1.1	x	-10

Arranged by SMILES length (smallest number first): part of the list above
SMILES	YopH PTP inh	Arbovirus anti	RecA splice inh	Mtb growth	Mtb betalactam	others
CCOc1ccc(CN2CCC(Cc3ccccc3)CC2)cc1	x	x	-0.4	x	-1
CCCc1cc(=O)n2[nH]c(-c3ccc(C)cc3)cc2n1	-39	-3	2.4	2%	4
CSc1cccc(NC(=O)CN(C)S(=O)(=O)c2ccccc2)c1	-24	4	-0.1	7%	-15
COc1ccccc1N(CC(=O)NCCSC(C)(C)C)S(C)(=O)=O	-39	3	-2.3	-5%	-1
O=C(COc1ccccc1[N+](=O)[O-])Nc1cc(Cl)ccc1C(=O)O	x	8	0.6	-4%	-8
O=C(COc1ccccc1)NC(=S)Nc1cccc(NC(=O)c2ccccc2Cl)c1	-21	-12	4.3	7%	3
COC(=O)C(NC(=O)CCC(=O)NC(C(=O)OC)c1ccccc1)c1ccccc1 (configuration not stated)	x	x	-1.5	x	-8
